AID504770: E. coli YBA685 growth inhibition, screen for V. cholerae RctB inhibitors. AID 504770. E. coli YBA685 rctB-dependent plasmid, OD600 growth, 3 h; active compounds read low. 0.27% of 130,000 active. z-score (no concentration beside the values);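 active = z-score under -2 on both plates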;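 also: wells of about 30 µL received 100 nL stock; score is relative to mean and SD of the test wells; the first replicate is given; strong numbers were not always called active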
Ba CapD inh: inhibitors of Bacillus anthracis CapD enzyme. 0.23% of 140,000 active. purified CapD enzyme, fluorescence intensity read-out; active compounds read low; some hits fall short of the stated cut. z-score (concentration not given with the values);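 active = z-score under -4 in either of two replicates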;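 also: stock transfer was 100 nL into about 40 µL; score is relative to mean and spread of the plate; one replicate is shown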
An asterisk follows results filed as active; i = inactive; / = not tested or not shown.

| compound | AID504770 | Ba CapD inh |
| --- | --- | --- |
| CCCNC(=O)c1sc2nc(C)cc(C)c2c1-n1cccc1 | 1.05 | 0.275 |
| C=CCn1c(SCC(=O)c2cccs2)nc2sc(CC)cc2c1=O | / | -0.58 |
| CC(C)(C)C(=O)CSc1ncnc2sccc12 | 0.95 | / |
| Cc1cc(C)cc(OCCn2c(-c3ccc(Cl)cc3)nc3ccccc3c2=O)c1 | -0.7 | 12.8 |
| O=C(O)c1ccc(CNC2CCS(=O)(=O)C2)cc1 (stereo not given) | -0.55 | 0.16 |
| O=C(Nc1ncc(-c2ccccc2)s1)c1cccc(N2C(=O)CCC2=O)c1 | -0.6 | 2.3 |
| COc1ccc(C2=NN(CN3C(=O)C(=O)c4ccccc43)C(c3ccccc3)C2)cc1 (stereo not given) | / | -0.06 |
| COCC(=O)Nc1nc2ccc(OC)cc2s1 | 0.95 | -0.765 |
| CCc1oc2ccccc2c1C(=O)CCN1CCCCC1 | 1.05 | 0.025 |
| CC(C)=NN/C(N)=N/C(=S)Nc1ccccc1 | / | -0.035 |
| CCc1c(O)c2ccccc2[nH]c1=O | -0.75 | 13.2 |
| COC(=O)c1sccc1N/N=C(/C#N)C(=O)C1CC1 | 0.3 | -0.245 |
| Cc1ccc(-c2nc(C#N)c(NCCCn3ccnc3)o2)cc1 | 1.85 | 1.65 |
| COC(=O)c1noc(C)c1-c1ccnn1C(=O)c1cc(C(F)(F)F)cc(C(F)(F)F)c1 | 1.05 | 9.77 |
| CN(C(=O)COc1cc(C(F)(F)F)nn1C)c1ccccc1 | 0.15 | 0.13 |
| Cn1nccc1NC(=O)Nc1ccc(Cl)cc1 | -0.1 | 0.42 |
| O=C(CN(Cc1ccco1)S(=O)(=O)c1ccccc1)Nc1ccccc1 | 0.35 | / |
| Cc1ccc(/C=N/N(C)C2=NCCN2)o1 | -0.8 | -0.625 |
| COc1cc(OC)cc(-c2nnc(SC(C)C(=O)NC3(C#N)CCCCC3)o2)c1 (stereo not given) | -0.55 | / |
| COc1ccc(CNC(=O)c2cn(CC(C)C)c(=O)c3cc(OC)c(OC)cc23)cc1 | / | 0.175 |
| CC1=Nc2cc(C(=O)N3CCCCCC3)ccc2Sc2ccccc21 | 0.7 | 0.135 |
| CCOC(=O)c1ccccc1NCn1c(=S)oc2ccccc21 | -1.4 | 37.9 |
| COC(=O)c1cc(-c2ccc(C)cc2)n[nH]1 | -1.1 | 0.01 |
| Cc1cc(C)n(-c2ccc(N=NC3=C(O)CCCC3=O)cc2)n1 | -0.25 | -4.44* |
| Clc1ccc(Nc2nc(Cl)nc(N3CCOCC3)n2)nc1 | / | -1.34 |
| Cc1[nH]nc2nc3c(c(OC(=O)c4ccccc4)c12)c(=O)n(C)c(=O)n3C | -0.4 | -0.275 |
| CC1CC(OC(=O)C(O)c2ccccc2)CC(C)(C)N1C (stereo not given) | / | 0.05 |
| O=C(COc1cc2oc(=O)c3c(c2cc1Cl)CCC3)N1CCCC1 | -0.1 | / |
| COCc1cc(C)nc(SCC(N)=O)c1C#N | -0.1 | / |
| Nc1cc(N)nc(SCc2ccc(Cl)cc2)n1 | -1.45 | / |
| CC1(C)CC2CC(C)(CN2C(=O)C2CCN(S(=O)(=O)c3cccs3)CC2)C1 (stereo not given) | -0.35 | 0.145 |
| CCOC(=O)N1CCN(C(=O)OCCc2ccc(Cl)cc2)CC1 | / | -0.105 |
| c1cncc(CNCc2ccco2)c1 | -0.15 | 0.035 |
| COc1cc(/C=N/NC(=O)c2ccc([N+](=O)[O-])o2)ccc1OC(=O)OC(C)(C)C | / | -0.255 |
| CN(C)CCCN=C(NO)c1c(Cl)cccc1Cl | 0.5 | 0.04 |
| Cc1ccc(-c2n[nH]c3c2CCC3)cc1 | 0 | -0.22 |
| O=C(Nc1cccnc1)c1ccc(Oc2cc(Cl)cc(Cl)c2)o1 | 1.5 | 0.75 |
| Cc1noc(C)c1NC(=O)Nc1cc(C(F)(F)F)cc(C(F)(F)F)c1 | 1 | 0.73 |
| CCOC(=O)c1c(CN2CCOCC2)n(-c2ccccc2)c2cc(Br)c(O)c(CN(C)C)c12 | / | -0.235 |
| COC(=O)c1ccc(C(=O)OC)c(NC(=O)c2cnn3c(C(F)(F)F)cc(-c4ccco4)nc23)c1 | / | 0.165 |
| NC(=O)CSc1ncc(-c2ccccc2)[nH]1 | 1.05 | -1.12 |
| CCC(=O)Nc1cc(NC(=O)c2ccco2)ccc1C | -0.7 | -0.34 |
| CCN(CC)c1nc2c(C)cccn2c(=O)c1C=C1C(=O)NC(=O)NC1=O | 1 | -0.925 |
| CCOc1cccc(C2c3c(oc4cc(C)c(C)cc4c3=O)C(=O)N2CCCN(C)C)c1 (stereo not given) | 1.1 | -0.2 |
| CCC1CCC(C(=O)O)CC1 (stereo not given) | 0.55 | 0.265 |
| CCOC(=O)c1cccc(NS(=O)(=O)c2cc(-c3cc(C)[nH]n3)ccc2C)c1 | -1 | -1.2 |
| CC(C)=CCC(C)(C)C1OCCN1C(=O)c1ccccc1 (stereo not given) | -0.45 | -0.185 |
| Cc1cc(C)cc(CC(CC(=O)Nc2nccs2)C(=O)Nc2nccs2)c1 (stereo not given) | 0.2 | -0.065 |
| O=C1/C(=C/c2ccccc2)CC/C1=C1\SCC(=O)N1c1ccccc1 | -0.6 | / |
| C[n+]1ccsc1-c1ccccc1 | -0.9 | -0.27 |
| CCOC(=O)N1CCN(S(=O)(=O)c2ccc(C(=O)Nc3cccc4c3C(=O)c3ccccc3C4=O)cc2)CC1 | / | -0.08 |
| CC(Sc1nnc(-c2ccc3c(=O)n4c(nc3c2)CCCCC4)o1)C(=O)Nc1ccc(F)cc1 (stereo not given) | -0.3 | / |
| COC(=O)c1ccc(OCC(O)Cn2cnc3ccccc32)cc1 (stereo not given) | -0.3 | -0.34 |
| COC(=O)c1c(N)n(-c2ccc(OC)cc2)c2nc3ccccc3nc12 | -0.6 | 17.9 |
| CC(=O)Oc1cc(C(F)(F)F)ccc1C(=O)O | / | -0.44 |
| CC(C)Sc1n[nH]c(=O)n1-c1cccc(C(F)(F)F)c1 | -0.7 | -0.005 |
| O=C(Nc1ncn[nH]1)c1ccc2c(c1)S(=O)(=O)c1ccccc1C2=O | -0.55 | / |
| COc1cc(-n2c(C)nc3cc(C(=O)NCC4CCCO4)ccc32)cc(OC)c1OC (stereo not given) | / | -0.1 |
| Cc1oc(-c2ccc(Cl)cc2)cc1-c1ccn[nH]1 | 0.05 | 5.09 |
| O=C1CSC(c2cc3c(cc2Br)OCO3)N1c1ccc(F)c(Cl)c1 (stereo not given) | / | 0.19 |

Following part.
| compound | AID504770 | Ba CapD inh |
| --- | --- | --- |
| COc1cccc(CCNS(=O)(=O)c2ccc(F)cc2F)c1 | / | -0.88 |
| CCC1CC(CSC(=N)N)OC1=O (stereo not given) | 0.35 | -0.11 |
| Cc1ccc(Sc2cccc3nc(N)nc(N)c23)cc1 | -0.3 | 21.1 |
| COc1ccc2c(c1)c(Sc1ccccc1)c(CC(=O)Nc1ccc(C)cc1)n2C | / | -0.27 |
| CCOCc1cnc(C)nc1NC(C)=O | -0.2 | / |
| O=C(NC1CCS(=O)(=O)C1)c1ccc(-c2ccccn2)s1 (stereo not given) | -0.65 | 68 |
| COC(=O)C1=C(C)NC(C)=C(C(=O)OC)C1c1cn(-c2ccccc2)nc1-c1ccc(OC)c(Br)c1 | / | 1.79 |
| O=C(CSc1nc2ccccc2c(=O)n1-c1ccccc1)N1CCN(CCO)CC1 | 0.7 | -0.41 |
| CC[N+](C)(CC)Cc1ccccc1 | -0.9 | 0.245 |
| COc1ccccc1S(=O)(=O)Cc1ccc(C(=O)NC2CCCCCC2)o1 | -0.35 | 18.4 |
| COc1cc2c(cc1OC)C(Nn1cnnc1)=NC1(CCCC1)C2 | / | 0.215 |
| COC(=O)c1ccccc1S(=O)(=O)c1c(C#N)c(C(F)(F)F)nn1C | / | -0.815 |

Looked up by structure from above, four records:
| compound | AID504770 | Ba CapD inh |
| --- | --- | --- |
| CCC1CC(CSC(=N)N)OC1=O (stereo not given) | 0.35 | -0.11 |
| Cc1ccc(Sc2cccc3nc(N)nc(N)c23)cc1 | -0.3 | 21.1 |
| CC[N+](C)(CC)Cc1ccccc1 | -0.9 | 0.245 |
| O=C(CSc1nc2ccccc2c(=O)n1-c1ccccc1)N1CCN(CCO)CC1 | 0.7 | -0.41 |

Going on with the list.
| compound | AID504770 | Ba CapD inh |
| --- | --- | --- |
| NC(=O)c1ccccc1Sc1ccccc1 | 0.55 | -0.24 |
| Cc1c(C(=O)O)nn(-c2ccccc2)c(=O)c1C#N | 0.05 | -0.175 |
| CCSCCOC(=O)C1=C(C)NC2=C(C(=O)CC(c3ccc(OC)cc3)C2)C1c1ccc(OC)cc1 (stereo not given) | / | 36.3 |
| CCn1c(C(=O)OC)cc2sc(Cl)cc21 | -1.05 | -0.345 |
| Cc1cc(C(=O)O)cc(=O)[nH]1 | -0.05 | 85 |
| COCCN1Cc2cccc(C(=O)NCC3CCN(CC(C)C)C3)c2C1=O (stereo not given) | -0.5 | 5.29 |
| CS/C(=N\S(=O)(=O)c1ccc(-n2nc(C(F)(F)F)cc2-c2cccs2)cc1)N1CCCCC1 | / | 0.1 |
| CC(C)=C(C#N)c1nc2ccccc2n1C | -0.5 | 0.445 |
| Cc1nn(-c2ccccc2)c2sc(C(=O)NN3CCOCC3)cc12 | 1.1 | 0 |
| O=S(=O)(NC1CCCc2ccccc21)c1cc(Cl)sc1Cl (stereo not given) | / | -0.325 |
| CN(Cc1ccccc1)c1nnc(NC(=O)c2cc(-c3ccc(Br)cc3)on2)s1 | 1.05 | 0.74 |
| CCOc1nc(NCCN2CCOCC2)nc(Nc2ccc(Cl)cc2)n1 | / | -0.795 |
| COC(=O)c1sccc1NS(=O)(=O)c1ccc(C)cc1 | -0.85 | -1.1 |
| O=C(CSc1n[nH]c(=O)[nH]c1=O)c1ccc(Cl)cc1 | -1.4 | 0.01 |
| CCOC(=O)c1c(C(C)C)csc1N | / | -0.805 |
| COc1ccc(C2C(=O)c3ccccc3C2=O)cc1 | -0.5 | 1.33 |
| NC1(CC(=O)O)CCCCC1 | -0.25 | / |
| Cc1c(NS(=O)(=O)N2CCCCC2)c(=O)n(-c2ccccc2)n1C | -0.85 | -0.5 |
| O=C([C@@H]1CCCN1C(=O)c1cccs1)N(CC1CCCO1)C1CCS(=O)(=O)C1 (stereo not given in full) | -0.7 | / |
| CCOC(=O)c1cc(C#N)c(N2CCN(S(=O)(=O)c3cccc(C)c3)CC2)nc1C(F)(F)F | / | 0.995 |
| O=C(c1cc(C2CC2)[nH]n1)n1ccnc1 | 0.15 | 6.59 |
| Oc1ccc(/C=N/NC(=S)NCC2CCCO2)cc1 (stereo not given) | -0.7 | / |
| Clc1nc2sccn2c1C=Nc1ccc(Oc2ccccc2)cc1 | / | -1.44 |
| O=C(Cc1ccccc1)Sc1nc2ccccc2[nH]1 | -0.95 | -0.49 |

In another format: 2 of the compounds above.
> NC1(CC(=O)O)CCCCC1
  AID504770: -0.25; Ba CapD inh: /
> Cc1c(NS(=O)(=O)N2CCCCC2)c(=O)n(-c2ccccc2)n1C
  AID504770: -0.85; Ba CapD inh: -0.5

Remaining list, next part
| compound | AID504770 | Ba CapD inh |
| --- | --- | --- |
| CC1CCC(C)(C(C)C)C(=O)/C1=C\c1ccc(Br)cc1 (stereo not given) | / | -0.305 |
| CC(=O)N(c1ccccc1)C1CC(C)N(C(=O)/C=C/c2ccccc2)c2ccccc21 (stereo not given) | / | -0.155 |
| COc1ccc(NC(=O)c2ccc(N3CC4CC(C3)c3cccc(=O)n3C4)c(NC(=O)/C=C/c3ccccc3)c2)cc1Cl (stereo not given) | / | -1.22 |
| Nc1ccnn1C1CCCC1 | -0.3 | / |
| Cc1cc(-c2c(C(=O)NN3CCOCC3)c(C)nn2-c2ccccc2)no1 | -1.15 | 0.385 |
| c1ccc2c(c1)CCN(Cc1ccncc1)C2 | -0.95 | 0.21 |
| COC(=O)c1n[nH]n(-c2ccc(C(C)C)cc2)c1=O | / | -0.67 |
| Cc1nc2cc(C(=O)NCCN3CCOCC3)ccc2n1-c1ccc(OCc2ccccc2)cc1 | / | -0.91 |
| Cc1c(C(=O)O)sc2sc(C(=O)O)c(C)c12 | / | 0.39 |
| c1ccc(OCCSc2nc3ccccc3o2)cc1 | 0.05 | / |
| CCC1CCCCN1C(=O)COC(=O)c1cnc(Cl)c(Cl)c1 (stereo not given) | -1.05 | -0.145 |
| O=C(CSc1n[nH]c(-c2ccncc2)n1)c1ccc(O)cc1O | / | -1.11 |
| CN(Cc1ccc(Cl)cc1Cl)Cn1ccn(C)c1=S | -0.65 | / |
| Cc1cc(C(=O)NCc2cccs2)nn1C | / | 0.64 |
| CCOc1ccc(S(=O)(=O)N(CC(=O)Nc2ccccc2C(=O)OC)c2ccccc2)cc1 | 1.9 | -1.07 |
| Cc1ccc(Cl)cc1NC(=O)c1ccc(N2CC3CC(C2)c2cccc(=O)n2C3)c(NC(=O)c2c(F)cccc2F)c1 (stereo not given) | / | 1.26 |
| COc1ccc(S(N)(=O)=O)cc1C(=O)Nc1ccc(N2CCOCC2)cc1 | 0.1 | / |
| CCc1ccccc1NC(=O)CSc1nc2cc(C(=O)NCCOC)ccc2c(=O)n1Cc1ccco1 | / | 0.12 |
| O=C(Nc1c2c(nn1-c1ccc([N+](=O)[O-])cc1)CSC2)c1cc2ccccc2oc1=O | / | 0.31 |
| COc1cccc(-c2cc(C(=O)Nc3cccnc3)on2)c1 | 0.2 | -0.48 |
| Cc1nc(C)c(S(=O)(=O)NCc2ccc(N3CCN(C)CC3)cc2)s1 | -0.7 | 0.57 |
| O=C(O)COc1nsnc1N1CCOCC1 | 0.2 | / |
| COc1ccc(C2=NOC(CN3C(=O)c4ccccc4S3(=O)=O)C2)cc1 (stereo not given) | -0.5 | 0.46 |
| FC(F)(F)c1cccc(N2CCN(Cc3cnc(Cl)s3)CC2)c1 | / | -0.17 |
| COc1ccccc1/C=C(\C(=O)NCc1ccc(F)cc1)c1ccccc1 | / | -0.185 |
| Cc1oc2ccc(OC(=O)C(C)C)cc2c1C(=O)OC(C)C | -0.55 | i |
| CCN1C/C(=C\c2ccc3c(c2)OCO3)C(=O)/C(=C/c2ccc3c(c2)OCO3)C1 | 1.35 | -1.21 |

Compounds were not picked by outcome (roughly 0.39% active in at least one column).
